YB-1 expr inh: inhibitors of YB-1 gene expression, primary screen, cell-based, fluorescence; 30,000 tested, 0.37% active; U2OS, qRT-PCR YB-1 vs CDIP delta delta Cp, 16 h; hits give high values; zero = DMSO, each unit about twofold; delta delta Cp (YB-1 minus CDIP) (concentration not given with the values); AID 434959, 2010;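 active = delta delta Cp rounded down to an integer at or above 3, about 3 SD of DMSO wells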;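 also: higher means less YB-1 transcript or more CDIP transcript relative to DMSO; stock transfer was 100 nL into about 100 µL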
MITF inhib: inhibitors of MITF, primary screen, MITF inhibitor project, cell-based, luminescence; 37,000 tested, 0.28% active; TRPM1 promoter luciferase, 24 h; AID 2240, 2010; inhibition, % (test concentration not listed);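 active = most replicates at 85% or more, or half of them and the mean; inconclusive = half reach 85% but not the mean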;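 also: human melanocyte line stably carrying TRPM1 promoter luciferase reporter; 0% = vehicle wells and 100% = a positive control; the first replicate is given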
PD-1 reverse act: activators reversing PD-1 mediated T-cell inhibition, primary screen, luminescence, primary human CD4 T cells, PD-L1 beads; CellTiter-Glo 96 h; activation, % (test concentration not listed); 29,000 tested, under 10 active; AID 2316, 2010;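 active = replicate mean of 50% or more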;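 also: 0% = median vehicle wells and 100% = positive control; 100 nL library stock added to about 50 µL; numbers are from one replicate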
Shh pathway inh: Hedgehog pathway signaling inhibitors, primary screen, luminescence, Shh-LIGHT2 cells, Gli-luciferase; 22,000 tested, 2.1% active; inhibition, % (test concentration not listed); Shh-LIGHT2 Gli-luciferase reporter, 30 h;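 active = replicate mean of 65% or more; inconclusive = mean lower but half the replicates past it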;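 also: pathway switched on by Shh-conditioned medium diluted 1 in 25 in low serum; 100 nL library stock added to about 40 µL; 0% = median of neutral wells and 100% = positive control level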
Numbers without * were called inactive; ? = inconclusive; / = not tested or not shown. A portion of the library; the hit share may differ from the screen's.

The line under a structure holds: YB-1 expr inh, MITF inhib, PD-1 reverse act, Shh pathway inh
- C[C@@H]1CN([C@@H](C)CO)C(=O)c2cccc(NC(=O)Nc3ccc(C(F)(F)F)cc3)c2O[C@H]1CN(C)Cc1ccccc1
    -0.38, 52, -6.9, -6
- Cc1ccc(S(=O)(=O)Nc2ccc3c(c2)C(=O)N([C@@H](C)CO)C[C@@H](C)[C@H](CN(C)C(=O)NC2CCCCC2)O3)cc1
    -0.05, 11, 0.0, /
- CC1(C)CC[C@]2(C(=O)O[C@@H]3OC[C@H](O[C@@H]4OC[C@H](O)[C@H](O)[C@H]4O)[C@H](O)[C@H]3O)CC[C@]3(C)C(=CCC4[C@@]5(C)C[C@H](O)[C@H](O[C@@H]6O[C@H](C(=O)O)[C@@H](O)[C@H](O[C@@H]7OC[C@H](O)[C@H](O)[C@H]7O)[C@H]6O)[C@@](C)(CO)C5CC[C@]43C)[C@@H]2C1 (some centres not stated)
    -0.067, 1, 1.6, -11
- COc1ccc(S(=O)(=O)Nc2cccc3c2O[C@H](CN(C)Cc2ccc(Oc4ccccc4)cc2)[C@@H](C)CN([C@@H](C)CO)C3=O)cc1
    0.066, 11, -0.3, 28
- C[C@@H]1CN([C@H](C)CO)C(=O)c2cc(NC(=O)Cn3cnnn3)ccc2O[C@H]1CN(C)Cc1ccc(Oc2ccccc2)cc1
    -0.65, -8, 0.9, /
- C[C@@H]1CN([C@H](C)CO)C(=O)c2cccc(NS(=O)(=O)c3ccc(F)cc3)c2O[C@@H]1CN(C)C(=O)Nc1ccc(F)cc1
    -0.2, -5, -0.3, 6
- C[C@H](CO)N1C[C@H](C)[C@H](CN(C)C(=O)NC2CCCCC2)Oc2ccc(NC(=O)CCC(F)(F)F)cc2CC1=O
    -0.21, -10, 0.5, -44
- COC(=O)c1c(C)oc2ccc(N(C(=O)c3ccccc3)S(=O)(=O)c3cccs3)cc12
    /, 30, -0.8, /
- CC(NC(=O)Cn1c(-c2nonc2N)nc2ccccc21)c1ccccc1 (configuration not stated)
    /, 7, 0.1, /
- COc1cc(NC(=O)COc2ccccc2[N+](=O)[O-])ccc1NC(=O)c1cccs1
    /, -27, -2.2, /
- C[C@H]1CN([C@@H](C)CO)C(=O)Cc2cc(NC(=O)Nc3cccc4ccccc34)ccc2O[C@@H]1CN(C)Cc1ccc(C(F)(F)F)cc1
    0.16, 29, /, -8
- CNC[C@H]1Oc2ccc(NS(=O)(=O)c3c(C)noc3C)cc2C(=O)N([C@@H](C)CO)C[C@H]1C
    -0.18, 8, /, /
- C[C@H]1CN([C@@H](C)CO)C(=O)Cc2cc(NC(=O)Nc3ccc4c(c3)OCO4)ccc2O[C@@H]1CN(C)Cc1ccc(Oc2ccccc2)cc1
    0.22, 11, 0.2, -21
- C[C@@H]1CCCCO[C@@H](CN(C)C(=O)Nc2ccccc2)[C@@H](C)CN([C@H](C)CO)C(=O)c2cc(NS(=O)(=O)c3cccs3)ccc2O1
    0.29, -5, 0.2, -23
- CCC(c1nc2ccccc2c(=O)n1-c1cccnc1)N1C(=O)c2ccccc2C1=O (configuration not stated)
    /, -18, 2.5, /
- CC(C)NC(=O)Nc1cccc2c1O[C@@H](CN(C)Cc1ccc(C(=O)O)cc1)[C@@H](C)CN([C@@H](C)CO)C2=O
    -0.1, -10, 1.4, 43
- N#C/C=C/N(C#N)c1ccccc1
    -0.22, -6, 2.8, -21
- Cc1sc(/N=C/c2cn(Cc3ccccc3)c3ccccc23)c(C#N)c1C
    /, -19, 0.1, /
- CC(C)NC(=O)Nc1ccc2c(c1)C(=O)N([C@@H](C)CO)C[C@H](C)[C@H](CN(C)CC1CCCCC1)O2
    1, 9, 2.2, /
- Cc1ccc(Nc2cc(=O)[nH]n2C)cc1Cl
    -0.21, -11, -0.7, -4

Overlap with the part before: 5 compounds, then new ones.
The line under a structure holds: YB-1 expr inh, MITF inhib, PD-1 reverse act, Shh pathway inh
- CC(C)NC(=O)Nc1cccc2c1O[C@@H](CN(C)Cc1ccc(C(=O)O)cc1)[C@@H](C)CN([C@@H](C)CO)C2=O
    -0.1, -10, 1.4, 43
- N#C/C=C/N(C#N)c1ccccc1
    -0.22, -6, 2.8, -21
- Cc1sc(/N=C/c2cn(Cc3ccccc3)c3ccccc23)c(C#N)c1C
    /, -19, 0.1, /
- CC(C)NC(=O)Nc1ccc2c(c1)C(=O)N([C@@H](C)CO)C[C@H](C)[C@H](CN(C)CC1CCCCC1)O2
    1, 9, 2.2, /
- Cc1ccc(Nc2cc(=O)[nH]n2C)cc1Cl
    -0.21, -11, -0.7, -4
- CNC[C@@H]1Oc2c(NS(=O)(=O)c3ccc(F)cc3)cccc2C(=O)N([C@@H](C)CO)C[C@H]1C
    -0.26, -4, 1.2, 2
- C[C@@H]1CN([C@@H](C)CO)C(=O)c2cc(NC(=O)c3ccncc3)ccc2O[C@@H]1CN(C)Cc1ccc(-c2ccccc2)cc1
    0.16, -6, -0.1, 17
- COc1ccc(S(=O)(=O)N(C)C[C@@H]2OCCCC[C@@H](C)Oc3ccc(NS(=O)(=O)c4cccs4)cc3C(=O)N([C@H](C)CO)C[C@@H]2C)cc1
    0.63, 15, -2.6, 23
- C[C@@H]1CN([C@@H](C)CO)C(=O)c2cccc(NC(=O)Nc3ccccc3)c2O[C@H]1CN(C)CC1CCCCC1
    -0.26, 30, /, -3
- C[C@@H]1CN([C@@H](C)CO)C(=O)c2cc(NC(=O)Nc3ccc(F)cc3)ccc2O[C@H]1CN(C)C(=O)Nc1ccc2c(c1)OCO2
    0.03, -6, 0.3, -45
- CCn1c(SCC(=O)Nc2ccc(C(=O)O)cc2)nnc1-c1ccc(C)cc1
    /, -4, 1.2, /
- Cc1sc2ncnc(SCC(=O)c3ccc4ccccc4c3)c2c1C
    /, 30, 0.1, /
- C[C@H]1CN([C@@H](C)CO)C(=O)c2cc(NC(=O)CCCN(C)C)ccc2O[C@@H]1CN(C)Cc1ccncc1
    -0.0065, -2, -0.2, -12
- Cc1noc(C)c1NC(=O)Nc1ccc2c(c1)CC(=O)N([C@@H](C)CO)C[C@H](C)[C@H](CN(C)S(=O)(=O)c1cn(C)cn1)O2
    -0.055, -4, 1.5, 49
- Cc1c(C(=O)N2CCc3ccccc32)oc2c1C(=O)CC(C)(C)C2
    -0.14, -100, 0.8, -96
- O=C(OCC(O)CO)c1ccccc1Nc1ccnc2cc(Cl)ccc12 (configuration not stated)
    -0.49, -7, /, -10
- CC(C)NC(=O)Nc1ccc2c(c1)CC(=O)N([C@H](C)CO)C[C@@H](C)[C@@H](CN(C)Cc1ccc(Cl)c(Cl)c1)O2
    -0.13, 3, -1.4, 9
- CC1CCc2c(sc3ncn(CC(=O)Nc4c(C(C)C)cccc4C(C)C)c(=O)c23)C1 (configuration not stated)
    /, 21, 1.5, /
- C[C@@H]1CN([C@@H](C)CO)C(=O)c2cc(NC(=O)Cc3ccccc3)ccc2O[C@H]1CN(C)S(=O)(=O)c1ccc(Cl)cc1
    0.16, 0, /, -19
- CCn1c(SCC(=O)Nc2ccc(Br)c(Cl)c2)nnc1-c1ccccc1F
    /, 13, 0.6, /
- COc1ccc(-c2coc3c(OC)c(OC)ccc3c2=O)cc1
    -0.72, -31, 4.1, 22
- O=C1Nc2ccc(Br)cc2/C1=C/c1cc2c([nH]1)CCCC2
    -0.13, -34, -1.3, -37
- C[C@H]1CN([C@@H](C)CO)C(=O)Cc2cc(NC(=O)Nc3ccccc3)ccc2O[C@H]1CN(C)Cc1ccccc1
    -0.17, -14, /, 26
- C[C@H]1CN([C@@H](C)CO)C(=O)Cc2cc(NC(=O)Nc3cccc4ccccc34)ccc2O[C@@H]1CN(C)C(=O)Nc1cccc2ccccc12
    -0.28, 8, /, -22
- C[C@@H]1CN([C@H](C)CO)C(=O)c2cc(NS(C)(=O)=O)ccc2O[C@H]1CN(C)Cc1ccncc1
    -9.2, -13, 2.1, /
- C[C@@H]1CN([C@H](C)CO)C(=O)c2cccc(NS(C)(=O)=O)c2O[C@H]1CN(C)C(=O)NC1CCCCC1
    0.16, -2, 2.8, -3
- O=C(Nc1ccc2c(c1)OCCO2)c1ccc(CNS(=O)(=O)c2cccc(C(F)(F)F)c2)cc1
    /, 30, -0.4, /
- C[C@@H]1CN([C@@H](C)CO)C(=O)c2cccc(NC(=O)Nc3ccc(C(F)(F)F)cc3)c2O[C@@H]1CN(C)C(=O)Nc1ccc(C(F)(F)F)cc1
    0.65, -1, -3.8, 15
- COc1ccc(NC(=O)Nc2ccc3c(c2)CC(=O)N([C@H](C)CO)C[C@@H](C)[C@H](CN(C)C(=O)Nc2ccc4c(c2)OCO4)O3)cc1
    -0.65, -3, /, ?
- COc1ccc(CN(C)C[C@@H]2Oc3ccc(NC(=O)Nc4ccc5c(c4)OCO5)cc3CC(=O)N([C@H](C)CO)C[C@H]2C)cc1
    0.75, -3, 0.3, /
- CSc1ccccc1NC(=O)c1cc2n(n1)C(C(F)(F)F)C1CCc3ccccc3C1N2 (configuration not stated)
    0.27, -2, 2.6, ?
- Cc1cc(Br)c(NC(=O)CSc2ncn(-c3ccccc3)n2)cc1C
    /, -18, 0.9, /
- COC(=O)c1cn(CC(N)=O)c2ccccc12
    /, -7, 1.2, /
- COc1ccc(NC(=O)Nc2ccc3c(c2)C(=O)N([C@H](C)CO)C[C@@H](C)[C@H](CN(C)C(=O)NC(C)C)O3)cc1
    0.62, 1, /, -20
- C[C@H]1CN([C@@H](C)CO)C(=O)c2cccc(NS(=O)(=O)c3cn(C)cn3)c2O[C@H]1CN(C)CC1CC1
    -0.25, -4, 2.4, -96
- CC(C)NC(=O)N(C)C[C@@H]1Oc2ccc(NS(=O)(=O)c3ccc(Cl)cc3)cc2CC(=O)N([C@H](C)CO)C[C@@H]1C
    0.12, -7, 1.0, 5
- CC(C)NC(=O)N(C)C[C@H]1Oc2c(NS(=O)(=O)c3ccc(Cl)cc3)cccc2C(=O)N([C@@H](C)CO)C[C@@H]1C
    -0.15, -5, -0.8, -12
- C[C@H]1CN([C@@H](C)CO)C(=O)c2cc(NS(=O)(=O)c3ccccc3)ccc2O[C@H]1CN(C)C(=O)Nc1ccc2c(c1)OCO2
    -0.048, 5, -0.5, 3
- C[C@H]1CN([C@@H](C)CO)C(=O)c2cccc(NC(=O)NC3CCCCC3)c2O[C@@H]1CN(C)C(=O)Nc1ccccc1
    -0.26, 5, -0.5, 1
- CNC[C@@H]1Oc2ccc(NC(=O)Nc3c(C)noc3C)cc2C(=O)N([C@@H](C)CO)C[C@H]1C
    0.079, -11, 0.7, -11
- C[C@@H]1CN([C@H](C)CO)C(=O)Cc2cc(NC(=O)Cc3ccccc3)ccc2O[C@H]1CN(C)S(=O)(=O)c1cccs1
    0.12, -6, /, 26
- COc1ccc(NC(=O)Nc2cccc3c2O[C@H](CN(C)S(=O)(=O)c2cccs2)[C@H](C)CN([C@@H](C)CO)C3=O)cc1
    0.91, -19, 0.7, -5
- C[C@@H]1CN([C@H](C)CO)C(=O)c2cccc(NC(=O)Nc3cccc4ccccc34)c2O[C@@H]1CN(C)Cc1ccc(Cl)c(Cl)c1
    -0.59, 31, -2.1, 12
- O=C(CSc1n[nH]c(-c2ccc(Cl)cc2)n1)Nc1cccc(Br)c1
    /, 6, -3.8, /
- COc1ccccc1NC(=O)C(CCS(C)(=O)=O)N1C(=O)c2ccc(Br)cc2C1=O (configuration not stated)
    /, -15, 1.6, /
- C[C@H]1CN([C@@H](C)CO)C(=O)Cc2cc(NC(=O)Nc3cccc4ccccc34)ccc2O[C@@H]1CN(C)C(=O)Nc1ccc2c(c1)OCO2
    0.2, -4, /, ?
- Cc1cccc(Cn2c(NCCCO)nc3c2c(=O)n(C)c(=O)n3C)c1
    /, -14, 0.5, /
- Cc1cc(C)c(NC(=O)CCNC2CCCCC2)c(C)c1
    -0.94, -3, -0.6, 3
- C[C@@H]1CN([C@H](C)CO)C(=O)c2cccc(NC(=O)NC3CCCCC3)c2O[C@@H]1CN(C)Cc1ccccc1
    -0.094, -5, /, 9
- C[C@H]1CN([C@@H](C)CO)C(=O)c2cc(NC(=O)Nc3cccc4ccccc34)ccc2O[C@@H]1CN(C)C(=O)Nc1ccccc1
    0.74, -5, 5.9, /
- Cc1noc(C)c1S(=O)(=O)N(C)C[C@H]1OCCCC[C@@H](C)Oc2ccc(NC(=O)C3CCCCC3)cc2C(=O)N([C@H](C)CO)C[C@@H]1C
    0.39, 6, 0.2, /
- COc1ccc(NC(=O)Nc2ccc3c(c2)C(=O)N([C@@H](C)CO)C[C@@H](C)[C@@H](CN(C)Cc2ccc(C(=O)O)cc2)O3)cc1
    0.3, -2, 1.7, /
- O=C1c2cccc3cccc(c23)C(=O)N1CCCSc1nnc(-c2ccncc2)n1-c1ccccc1
    /, 43, -2.0, /
- CN1CCN(C2=Nc3cc(F)ccc3Cc3ccccc32)CC1
    0.41, 15, 2.1, 36
